Calb FLC: affects C. albicans growth with fluconazole; growth inhibition, % (no concentration beside the values); AID 1979; C. albicans CaCi-2 (fluconazole-resistant clinical isolate) + fluconazole, Alamar Blue growth, 48 h; 0.57% of 300,000 active;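 active means most replicates above 75%; inconclusive means exactly half above 75%; inactive means most below 75%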;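 further: all wells also contain fluconazole at 8 µg/ml as a sub-toxic cotreatment; 0% = median of DMSO wells and 100% = median of geldanamycin control wells; wells of about 8 µL received 7.5 nL stock; the first replicate is given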
T cruzi inh: blocks replication of Trypanosoma cruzi. 1.4% of 300,000 active. T. cruzi beta-gal in NIH3T3, luminescence, 90 h. inhibition, % (test concentration not listed);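 active means mean inhibition across valid replicates above about 55%, limit read from the data; inconclusive means mean below that limit but half or more replicates reach it; inactive means mean below it, under half of replicates reach it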;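 further: signal also drops with host cell toxicity which is not excluded here; 0% = plate median of DMSO wells and 100% = zero luminescence signal; higher percent means less beta-gal luminescence so fewer parasites; stock transfer was 50 nL into about 50 µL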
B2AR ag: human beta-2 adrenergic receptor agonism by FAP; P07550; Am2.2-beta2AR cells, FAP receptor internalization, flow cytometry; reference of the scale not given here; response, % (test concentration not listed); 0.43% of 340,000 active;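 active means response above a set limit, near 3 SD of response in nonfluorescent compounds, cut at about 42% in these data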;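 further: stock transfer was 100 nL into about 11 µL; a reference agonist was the positive control; negative values mostly stem from fluorescent compounds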
Target sequence (P07550 whole entry, looked up): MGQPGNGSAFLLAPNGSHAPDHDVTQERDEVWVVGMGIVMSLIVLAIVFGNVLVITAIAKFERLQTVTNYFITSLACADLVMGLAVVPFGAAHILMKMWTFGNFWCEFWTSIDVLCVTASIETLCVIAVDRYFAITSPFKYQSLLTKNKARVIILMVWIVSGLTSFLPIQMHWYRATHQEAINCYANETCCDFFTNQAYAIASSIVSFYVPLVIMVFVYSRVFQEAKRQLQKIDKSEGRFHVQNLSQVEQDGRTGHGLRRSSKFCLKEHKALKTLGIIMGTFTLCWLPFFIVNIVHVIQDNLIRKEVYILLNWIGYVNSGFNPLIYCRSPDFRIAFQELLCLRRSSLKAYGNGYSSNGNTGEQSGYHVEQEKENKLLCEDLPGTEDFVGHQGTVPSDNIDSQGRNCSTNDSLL
rRNA inh HTS: selective bacterial rRNA inhibition in E. coli. 1.6% of 350,000 active. E. coli WT GFP vs humanized-ribosome RFP mutants, fluorescence, 24 h; active compounds read low; DMSO median 0, no signal -100. GFP signal change (wild-type ribosome), % (no concentration beside the values);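 active means significant combined selectivity score with lowered wild-type GFP, culture density cut under 30%, mutant RFP and density less affected; inactive means any of these conditions unmet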; further: one replicate is shown; some compounds called inactive have numbers as strong as hits
rRNA inh HTS OD600: recorded beside rRNA inh HTS, whose call it bears; OD600 change, %; measured here: OD600 growth;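 optical density of the mix in the first replicate; 0 = DMSO median and -100 = no signal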
rRNA inh HTS RFP: also measured in rRNA inh HTS; calls as there; RFP signal change, %; measured here: RFP humanized mutant strains;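 first replicate; 0 = DMSO median and -100 = no signal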
* = called active by the depositor; ? = inconclusive; . = no result given. Some of the compounds tested (hit frequency here may not be typical).

SMILES	Calb FLC	T cruzi inh	B2AR ag	rRNA inh HTS	rRNA inh HTS OD600	rRNA inh HTS RFP
CC(=O)N1CCCC(C)(C(=O)Nc2cccc(OC(C)C)c2)C1 (stereo unspecified)	.	.	.	7	18	0.7
COC(=O)[C@]12C[C@H](CC(=O)NCc3cccc4ccccc34)C(=O)N(Cc3ccc4c(c3)OCO4)C1=C[C@H](C(C)(C)C)O[C@@H]2C	.	.	.	19	4	-0.2
C[C@H](CO)N1C[C@H](C)[C@@H](CN(C)C(=O)NC2CCCCC2)OCc2ccccc2-c2c(n(C)c3ccccc23)C1=O	.	.	.	-1	4	0.0
O=C(C[C@H]1C[C@H]2c3cc(NC(=O)C4CCOCC4)ccc3O[C@H]2[C@H](CO)O1)NCc1ccc(Oc2ccccc2)cc1	.	.	.	3	8	1.5
C[C@H](CO)N1C[C@H](C)[C@@H](CN(C)Cc2ccncc2)OCCCC[C@H](C)Oc2ccc(NC(=O)Nc3ccc4c(c3)OCO4)cc2C1=O	.	.	.	0	-10	1.7
CCCNC(=O)N1[C@@H]2c3cccc(=O)n3C[C@H]1[C@H](CO)[C@H]2C(=O)NCC(F)(F)F	.	.	.	2	-1	0.7
COCCNC(=O)C1(C)CCN(C(=O)/C=C/c2ccccc2)C1 (stereo unspecified)	.	.	.	10	13	1.2
CN(C)C(=O)c1cccc(-c2ccccc2[C@@H]2[C@@H](C#N)N(C(=O)C3CCCC3)[C@H]2CO)c1	.	.	.	7	14	2.2
Cc1cccc(-c2ccc([C@@H]3[C@@H](CO)N4C(=O)CN(C(=O)Cc5ccccn5)C[C@@H]34)cc2)c1	.	.	.	2	-2	-0.5
Cc1noc(C)c1NC(=O)Nc1ccc2c(c1)C(=O)N([C@@H](C)CO)C[C@@H](C)[C@@H](CN(C)CC1CCCCC1)OCCCC[C@@H](C)O2	.	.	.	0	1	-1.4
C[C@@H]1CN([C@H](C)CO)C(=O)c2cc(N(C)C)ccc2O[C@@H](C)CCCCO[C@@H]1CN(C)Cc1ccc(C(F)(F)F)cc1	.	.	.	-6	-13	4.2
CO[C@H]1CN(C)C(=O)c2ccc(NC(C)=O)cc2OC[C@@H](C)N(CCC(F)(F)F)C[C@@H]1C	.	.	.	-1	-5	-1.2
CCCCS(=O)(=O)N1CCCc2nc(C)c(C)cc21	.	.	.	13	12	-1.0
CCC(=O)NC[C@@H]1[C@@H](c2ccc(C3=CCCC3)cc2)[C@@H](CO)N1CC1CCCC1	.	.	.	5	-20	2.9
O=C(CC1CC1)Nc1ccc2c(c1)[C@@H]1C[C@@H](CC(=O)N3CCCCC3)O[C@@H](CO)[C@@H]1O2	.	.	.	1	-1	1.6
Cc1ccc(S(=O)(=O)N[C@@H]2CC[C@@H](CCNC(=O)CN3CCOCC3)O[C@H]2CO)cc1	.	.	.	2	2	-0.4
COc1ccc(CN(C)C[C@H]2Oc3ccc(NC(=O)Nc4ccc5c(c4)OCO5)cc3C(=O)N([C@H](C)CO)C[C@H]2C)cc1	.	.	.	-1	4	0.7
Cc1ccc(-c2cnc3c(c2)C(=O)N([C@@H](C)CO)C[C@@H](C)[C@@H](CN(C)C(=O)c2ccc(F)cc2)O3)cc1	.	.	.	-1	-6	1.6
CO[C@H](CN(C)Cc1ccc2c(c1)OCO2)[C@@H](C)CN(C(=O)c1ccccc1)[C@@H](C)CO	.	.	.	4	5	-0.9
Cn1c(N)c(C(=O)COC(=O)C2Cc3ccccc3CN2S(C)(=O)=O)c(=O)n(C)c1=O (stereo unspecified)	.	.	.	4	12	-0.2
NC(=O)CC(NC(=O)c1cccc(Br)c1)c1ccc(NCCN2CCOCC2)c([N+](=O)[O-])c1 (stereo unspecified)	2	-22	.	10	16	-0.9
Cc1cccc(N2CCN(C(=S)Nc3ccc4nc(N5CCN(C)CC5)cc(C)c4c3)CC2)c1C	49	65*	.	8	6	-0.1
CCCCNc1ccc2c3c(cccc13)C(=O)N(CCCC)C2=O	3	35	.	105	-5	22
Cc1ccc(Nc2nc(-c3ccc(O)c(O)c3)cs2)nc1	35	-30	.	-58	-56	-14
CCCCCCN(C(=O)CCCCCN1C(=O)NC(c2ccc(-c3ccccc3)cc2)C(C(=O)OCc2ccccc2)=C1C)C(C(=O)NCCCC)C1CCCCC1 (stereo unspecified)	-13	-3	.	8	21	-6.0

Next part:
SMILES	Calb FLC	T cruzi inh	B2AR ag	rRNA inh HTS	rRNA inh HTS OD600	rRNA inh HTS RFP
Oc1ccc(/C=N/Nc2ccc(C(F)(F)F)cn2)cc1O	-7	-29	.	-44	-73	-6.1
Cc1ccc(C(=O)NC(C#N)=C(Cl)Cl)cc1	?	52	.	-27*	-20*	-5.0*
CC(=O)Nc1cccc(NC(=O)CSc2nnnn2C)c1	1	-5	.	6	4	-4.1
CC1=CC(=C2C=CC(=O)C=C2)C=C(C)N1C	-9	1	.	15	11	5.6
COc1cc([N+](=O)[O-])ccc1-c1ccc(/C=N/NC(=O)c2ccccc2O)o1	-4	-11	.	8	10	14
O=C1NC(=S)SC1=Cc1ccc2c(c1)OCO2	.	.	7	-1	2	3.1
COc1ccc(Cl)c2sc(N(CCN(C)C)C(=O)C3=COCCO3)nc12	.	.	-3	0	6	0.1
Cc1cn(CC(=O)NCc2ccc3c(c2)OCO3)c(=O)[nH]c1=O	.	.	-8	22	21	2.1
O=C(NCCCO)c1ccc2nc(-c3ccco3)c(-c3ccco3)nc2c1	.	.	3	2	8	2.4
NN=C(NN=Cc1ccccc1)c1ccccc1	.	.	-5	3	19	-0.2
Cc1c(NC(=O)c2cccc(S(=O)(=O)N(C)c3ccccc3)c2)c(=O)n(-c2ccccc2)n1C	.	.	-9	-2	-4	-3.2
CCN(C[C@H]1N[C@@](CC)(C(=O)OC)[C@H]2C(=O)N(C)C(=O)[C@@H]12)C(=O)COc1ccccc1	.	.	-8	0	6	-0.5
CN(Cc1ccccc1)C(=O)c1ccc(NC(=O)Cc2ccc(NC(=O)C3CCCN(C(=O)C4CCCCC4)C3)cc2)cc1 (stereo unspecified)	.	.	2	4	3	-2.9
CCN(C[C@H]1N[C@@](C)(C(=O)OC)[C@H]2C(=O)N(Cc3ccccc3)C(=O)[C@@H]12)C(=O)c1ccc(C)cc1	.	.	5	-1	2	2.5
CC(C)CC1NC(=O)N(CC(=O)Nc2ccc(OC(F)F)cc2)C1=O (stereo unspecified)	.	.	2	2	-3	-0.6
CC1(C)c2ccccc2-c2nc3ccccc3cc2C1N1CCOCC1 (stereo unspecified)	.	.	35	4	-7	7.5
CCOC(=O)N1C2CCC(C2)N1C(=O)OCC	.	.	-10	9	9	3.5
Oc1cccc(CN2CCOCC2)c1O	.	.	-4	0	12	-4.0
COc1ccc(CNC(=O)C(c2ccncc2)N(C(=O)Cc2cccs2)c2ccccc2)cc1 (stereo unspecified)	.	.	-17	7	12	-2.8
COc1cc(C2c3cc4c(cc3CC3COC(=O)N32)OCO4)cc(OC)c1OC (stereo unspecified)	.	.	4	1	7	1.9
O=C(C=Cc1ccc2c(c1)OCO2)OCC=Cc1ccc2c(c1)OCO2	.	.	-6	4	2	-1.6
O=C(Cc1ccccc1)N/N=C\c1ccc(Br)o1	.	.	5	8	3	-7.2
COc1cc(O)c(C(C)=O)c2c1C=CC(C)(C)O2	.	.	0	-2	3	-4.8
c1csc(CCCN2CCCCC2)c1	.	.	-9	22	37	0.8
CN1CC[C@@H]2C(=O)N3CCc4ccc(-c5ccc6c(c5)OCO6)cc4[C@@H]3C[C@@H]21	.	.	-5	-1	-2	1.1

Entries above containing a cyano group:
SMILES	Calb FLC	T cruzi inh	B2AR ag	rRNA inh HTS	rRNA inh HTS OD600	rRNA inh HTS RFP
CN(C)C(=O)c1cccc(-c2ccccc2[C@@H]2[C@@H](C#N)N(C(=O)C3CCCC3)[C@H]2CO)c1	.	.	.	7	14	2.2
Cc1ccc(C(=O)NC(C#N)=C(Cl)Cl)cc1	?	52	.	-27*	-20*	-5.0*

Additional results.
SMILES	Calb FLC	T cruzi inh	B2AR ag	rRNA inh HTS	rRNA inh HTS OD600	rRNA inh HTS RFP
Cc1ccc(-c2csc(C(C#N)=C(O)CN3CCN(C(=O)c4ccco4)CC3)n2)cc1	.	.	3	-1	2	16
CCCn1c(N)c(N(CCOC)C(=O)c2ccc(S(=O)(=O)N3CCOCC3)cc2)c(=O)[nH]c1=O	.	.	4	17	0	0.7
CC(=O)Nc1ccc2c(c1)C(=O)c1cccc(C(=O)O)c1-2	.	.	0	6	13	0.1
O=C(CC(O)CCc1ccccc1)c1ccc(O)cc1 (stereo unspecified)	.	.	2	-4	-3	-6.6
O=S(=O)(c1ccccc1)N(c1ccccc1)S(=O)(=O)c1ccccc1	.	.	-4	-8	-29	-4.9
O=C(NNc1ccc([N+](=O)[O-])cc1)c1ccccc1F	.	.	-2	-1	3	-0.3
O=c1c2ccccc2sc2ccccc12	.	.	1	-1	6	-1.2
O=C(Nc1ccc(Cl)cc1)OCCN1CCOCC1	.	.	-2	0	4	-4.0
CN1CCN(S(=O)(=O)c2ccc(C3CCCCC3)cc2)CC1	.	.	4	6	0	4.1
O=C1CCCC2=C1C(c1ccsc1)CC(=O)N2c1nnc(SCc2ccccc2)s1 (stereo unspecified)	.	.	7	-7	2	0.1
O=C(CN1CCN(c2ccc(O)cc2)CC1)Nc1ccccc1C(=O)NCCc1ccccc1	.	.	15	-25*	-19*	1.2*
COc1cc(C(=O)OCC(=O)NCCC2=CCCCC2)cc(OC)c1OC	.	.	-8	3	3	0.6
COc1cc(N2C(=O)C=CC2=O)ccc1N1C(=O)C=CC1=O	.	.	8	1	10	-1.3
CC(C)(C)S(=O)N1Cc2cn(Cc3ccccc3)c(=O)cc2[C@@H]1CCO (stereo partly specified)	.	.	6	23	8	5.8
N#CC(=Cc1ccncc1)c1ccccc1	.	.	-2	-14	-13	0.8
COc1ccc2[nH]c3c(c2c1)CCN1C(=O)C(CC(=O)NC(C)(C)C)C[C@H](C(=O)N2CCCCC2)[C@@]31CCc1ccccc1 (stereo partly specified)	.	.	-2	10	10	-0.3
COc1cc(OC)c2c(-c3cccc(-c4ccc(F)c(Cl)c4)c3)cc(=O)oc2c1	.	.	-3	19	12	2.6
C=C[C@]12CC[C@H](OC(C)=O)CC1=CCC1C2CC[C@@]2(C)C1CCC21OCCO1 (stereo partly specified)	.	.	-2	0	-33	-1.1
C=C1C(=O)C23C(O)C1CCC2C12CCCC(C)(COC(C)=O)C1C(O)C3(O)OC2 (stereo unspecified)	.	.	58*	10	15	7.6
CN(CC(=O)Nc1cccc(F)c1)CC(=O)N(C)CC(=O)Nc1ccccc1Br	.	.	12	0	2	-1.8
COc1ccc2[nH]c3c(c2c1)CCN1C(=O)C(CC(=O)NCc2ccco2)C[C@H](C(=O)N2CCCCC2)[C@@]31CCc1ccccc1 (stereo partly specified)	.	.	9	7	11	1.1
Cc1ccc(C(=O)N2[C@@H]3CN(C)C(=O)[C@@]2(Cc2ccccc2)[C@H]2C(=O)N(Cc4ccccc4)C(=O)[C@@H]32)cc1	.	.	0	-14	-18	-8.6
Cc1ccc(NC(=O)CN(C)C(=O)c2cc(-c3ccccc3)nn2-c2ccccc2)cc1	.	.	19	7	9	-4.7
Cc1ncc(NS(=O)(=O)c2ccc(N)cc2)nc1C	.	.	-2	13	9	2.4
CCN(c1ccccc1)S(=O)(=O)c1ccc(Oc2ccccc2)c(N)c1	.	.	-2	-14	-26	0.1

Only rRNA inh HTS, for some of the entries so far:
Molecule,rRNA inh HTS
CC(C)CC1NC(=O)N(CC(=O)Nc2ccc(OC(F)F)cc2)C1=O (stereo unspecified),2
COc1cc(N2C(=O)C=CC2=O)ccc1N1C(=O)C=CC1=O,1

The list goes on:
SMILES	Calb FLC	T cruzi inh	B2AR ag	rRNA inh HTS	rRNA inh HTS OD600	rRNA inh HTS RFP
O=C(NC1CCCCC1)c1cccc(N2C(=O)CCC2=O)c1	.	.	3	10	6	-0.8
O=C(c1ccccc1)c1ccccc1C(=O)N1CCN(Cc2ccccc2F)CC1	.	.	7	3	1	3.9
O=C(Nc1ccc(C(=O)N2CCOCC2)cc1)C1CCC1	.	.	-6	3	10	1.9
CN(C)CC1(C)Cc2ccsc2C1O (stereo unspecified)	.	.	-5	9	10	2.8
C=CCN1C(c2ccc(Br)cc2)=CS/C1=C(\C#N)c1nnc(N2CCOCC2)n1-c1ccccc1	.	.	12	-44	-66	-11
Cc1ccc(C)c(OCCC(=O)OCc2csc(CC(=O)Nc3ccccc3C)n2)c1	.	.	-1	6	11	3.6
CC(COc1ccccc1)OC(=O)Nc1ccccc1 (stereo unspecified)	.	.	-14	-8	-71	-4.0
CN(C)CCCNC(=O)C[C@H]1C[C@H](C(=O)N2CCCCC2)[C@@]2(CCc3ccccc3)c3[nH]c4cc(-c5ccco5)ccc4c3CCN2C1=O	.	.	31	1	8	6.6
